# Assay outcomes (PubChem)
# HPGD inh = qHTS Assay for Inhibitors of HPGD (15-Hydroxyprostaglandin Dehydrogenase) | purified HPGD, NADH fluorescence kinetic, PGE2 substrate | Potency, µM, inactives show at the highest dose activity change, negative = inhibition, usual class: inhibitors | actives 4.3% (n = 150,000) | AID 894, 2007; active = well fitted inhibition curve with a large enough effect (not every such curve was filed as active); inconclusive = small, poorly fitted or top-dose-only effect, or another doubt; inactive = no such curve, though single readings can be large or run the other way;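 note: top concentration of the series not given in the record; plate controls included wells without enzyme; inactives centre near -10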
# Target sequence (P15428 whole entry, looked up): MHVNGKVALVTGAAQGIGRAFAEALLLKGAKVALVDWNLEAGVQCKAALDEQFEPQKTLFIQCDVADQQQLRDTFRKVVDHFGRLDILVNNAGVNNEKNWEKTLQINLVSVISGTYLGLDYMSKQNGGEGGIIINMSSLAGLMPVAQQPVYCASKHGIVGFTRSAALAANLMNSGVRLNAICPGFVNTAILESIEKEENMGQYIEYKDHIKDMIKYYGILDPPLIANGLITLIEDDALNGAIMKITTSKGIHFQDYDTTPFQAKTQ
#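 NADH formation kinetics: reaction with 30 uM PGE2 and 1 mM NAD+ (final), 20 nM enzyme, Tris-HCl pH 8 with Tween 20, after 15 min compound preincubation at room temperature. Fluorescence change, last versus first of five reads.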
# * hit, by the source's call; ? = inconclusive; & = joins results of further samples. % is set by controls: 0 for no effect and ±100 for the full control effect; potency is the fitted concentration of half-maximal effect. A portion of the library; rates above refer to the full screens.
SMILES,HPGD inh
CC(C)NC(=O)c1onc(CSc2ccc(C(C)C)cc2)c1C(=O)O,22.4µM*
COc1ccccc1-n1nc(C(=O)O)c2ccccc2c1=O,-2.0%
CCOC(=O)CNc1c(N2CCN(c3ccccn3)CC2)c(=O)c1=O,-14.7%
Cc1nc2c(C#N)c[nH]n2c(=O)c1Cc1ccccc1,-20.9%
CCn1c2ccccc2c2cc(NC(=O)C(C)Oc3ccccc3)ccc21 (stereo unspecified),?
Cc1c(N=Cc2nc3ccccc3[nH]2)c(=O)n(-c2ccccc2)n1C,-22.9%
COC(=O)C1CCN(S(=O)(=O)c2ccc(NC(C)=O)cc2)CC1,0.5%
CCOC(=O)c1sc(NC(=O)c2ccc(S(=O)(=O)N(CC)CC)cc2)nc1C,?
CCOC(=O)c1c(C)n(C)c2cc(Br)c(C(=O)OC)cc12,-3.8%
COc1ccc(/C=C(\C#N)C(=O)c2c(C)[nH]c3ccccc23)cc1OC,-2.1%
O=C(NNC1=C(C(=O)C(F)(F)F)CCC1)c1cccc(O)c1,-12.1%
O=c1[nH]c(CN2CCc3ccccc3C2)nc2ccccc12,-19.6%
CC(Oc1ccc(Cl)cc1Cl)C(=O)NCCCN(C)C (stereo unspecified),-13.2%
Cc1ccc(S(=O)(=O)N(CCC(=O)O)c2ccccc2)cc1,-8.5%
Cc1sc(NC(=O)c2cc(-c3ccccc3)nc3ccccc23)c(C(N)=O)c1C,-8.8%
COc1ccc(F)cc1S(=O)(=O)NC(Cc1ccccc1)C(N)=O (stereo unspecified),-12.6%
CCOC(CNC(=O)c1cc(C)nn1-c1ccccc1)OCC,-2.9%
O=C(Nc1cccc(-c2nnc(-c3ccccc3)o2)c1)C1CCCCC1,?
Cc1cccc(CNc2ccnc(-c3cccc(NS(C)(=O)=O)c3)n2)c1,?
Cc1nn(-c2ccccc2)c2ncc(C(=O)c3cc(Cl)ccc3O)cc12,15.8µM*
Cc1c(C(=O)Nc2cccc([N+](=O)[O-])c2)csc1-c1ccccc1,-0.8%
Cc1onc(-c2c(F)cccc2Cl)c1C(=O)OCN1C(=O)c2ccccc2C1=O,1.41µM*
COCCCNC(=O)Cn1cc(C(=O)c2cccs2)c2ccccc21,-7.1%
CCc1nnc(NC(=O)Nc2ccc(OC)cc2)s1,-5.0%
NNC(=S)NCc1cccnc1,-5.6%
O=c1cc(O)nc2n1CCCS2,-19.1%
NC(=O)c1cccc2c1C(=O)N(C1CCCCC1)C2,-20.4%
CNC(=O)CCc1[nH]c2ccccc2c1Sc1ccccc1,-5.0%
COc1cc(C(=O)Nc2ccccc2N2CCN(S(C)(=O)=O)CC2)cc(OC)c1OC,-11.3%
CCCCN(C(=O)c1cnc2n(c1=O)CCS2)c1ccccc1,-8.0%
Cc1cccc(-c2c3c(=O)n(C)c(=O)n(C)c3cn2C(C)(C)C)c1,-7.4%
CC(=O)Nc1c(C)nn(C(C)=O)c1C,-4.6%
O=C(NC1c2ccccc2-c2ccccc21)N1CCOCC1,-0.8%
Cc1ccccc1OCCSc1nnc(C)n1-c1ccccc1,-10.1%
O[C@@H](COc1ccc(Cl)cc1Cl)CN1CCCC1,0.3%
Cc1ccc(C)c(N2CCN(C(=O)CSc3ccsc3[N+](=O)[O-])CC2)c1,?
CCOC(=O)c1cc(C)sc1NC(=O)C1CCC1,-5.9%
CCOc1ccccc1CNC(=O)Cn1c(=O)oc2ccccc21,-7.4%
O=C(CCS(=O)(=O)c1ccc(Br)cc1)N1CCN(c2ccccc2)CC1,5.6%
COc1cc(S(=O)(=O)Nc2ccccc2C)ccc1Cl,-3.4%

# Structures listed so far that contain a COOH group (3):
SMILES,HPGD inh
CC(C)NC(=O)c1onc(CSc2ccc(C(C)C)cc2)c1C(=O)O,22.4µM*
COc1ccccc1-n1nc(C(=O)O)c2ccccc2c1=O,-2.0%
Cc1ccc(S(=O)(=O)N(CCC(=O)O)c2ccccc2)cc1,-8.5%

# Carrying on:
SMILES,HPGD inh
CCCCOc1ccc(C(O)(CC)CCN2CCOCC2)cc1 (stereo unspecified),-6.6%
COc1ccc(CC(=O)c2ccc(OC)c(OC)c2C)cc1OC,-5.0%
CC(C)(C)c1nnc2sc(SC/C(O)=C(\C#N)c3nc4ccccc4[nH]3)nn2c1=O,20µM*
CNC(=S)N/N=C/c1ccc(OCC(=O)Nc2c(C)cc(C)cc2C)c(OC)c1,-18.5%
c1ccc(CNc2ncnc3c2oc2ccccc23)nc1,-16.4%
O=C(c1cccs1)N(Cc1ccccn1)Cc1ccco1,-5.6%
COC(=O)[C@H](C)[C@H]1C[C@]1(C)[C@H](NC(=O)OCc1ccccc1)c1ccccc1,-22.3%&-2.4%
CCCn1c(C)nc2c(NCC(C)(C)CN(C)C)nc(C)nc21,-6.4%
COc1cc(-c2noc(-c3cccc(Cl)c3)n2)cc(OC)c1OC,-12.7%
Cc1ccc(S(=O)(=O)NCC2CCC(C(=O)O)CC2)cc1 (stereo unspecified),-12.3%
Cc1ccc(C#CC[N+]2(CC#Cc3ccc(C)cc3)CCCCC2)cc1,-5.9%
Cc1nn(-c2ccc(S(=O)(=O)O)cc2)c(O)c1N=Nc1ccc(-c2ccc(N=Nc3ccc4c(S(=O)(=O)O)cc(S(=O)(=O)O)c(N)c4c3O)c(O)c2)cc1O.[Cu].[Cu],0.794µM*
Cc1ccc(NC(=S)NC2CC3CCCC(C2)N3Cc2cccs2)cc1 (stereo unspecified),-6.2%
N#C/C(C(=O)N1CCCC1)=C1/N=C(N)c2ccccc21,-20.1%
COC(=O)c1ccc(CNC(=O)COC(=O)C2CCC(C(C)(C)C)CC2)cc1 (stereo unspecified),-9.9%
COC(=O)CCC(C)C1CCC2C3C(C[C@H](O)C12C)C1(C)CC[C@@H](O)CC1C[C@H]3O (stereo partly specified),-5.2%
C/C=C/C=C/C(=O)Nc1nccs1,-20.8%
COc1ccc(C(=O)Nc2cc(Cl)ccc2OC(=O)c2ccc(OC)cc2)cc1,-7.9%
COc1ccc(Cc2nnc(SCc3nc4ccccc4c(=O)[nH]3)o2)cc1,-18.8%
CCOC(=O)CNC(=O)O[C@H]1C(=O)c2cc(OC)ccc2O[C@@H]1c1ccc(OC)c(Br)c1,-8.6%
COc1ccccc1NC(=O)CSc1ccc2nnc(-c3ccncc3)n2n1,-13.0%
Clc1ccc2c(N/N=C/c3ccccc3Br)ccnc2c1,-11.5%
Cc1ccc(S(=O)(=O)NNC(=O)c2ccc(O)cc2)cc1,-2.3%
Cc1ccc(Sc2ccc(/C=N/O)cc2[N+](=O)[O-])cc1,-14.7%
COC(=O)N1C2CC(=O)O[C@@H]3c4cc5c(cc4[C@]1(C)[C@@]3(Br)c1ccccc12)OCO5,?
CCC(=O)N(CCC1(C(C)C)CCOC(C)(C)C1)Cc1ccco1 (stereo unspecified),7.2%
Cc1cccc(NC(=S)NC2CC3CCCC(C2)N3CC(C)C)c1 (stereo unspecified),-7.2%
CS(=O)(=O)N(Cc1nnc(-c2cccs2)o1)c1ccc(Cl)cc1F,-11.0%
CC1(C)C(O)CC[C@]2(C)C1CC[C@@]1(C)C2C(=O)C=C2[C@@H]3C[C@@](C)(C(=O)O)CC[C@@]3(C)CCC21C (stereo partly specified),-0.2%
Cc1cccnc1NC(=O)Nc1cccc2ccccc12,?
Cc1ccc(C(c2c(C)[nH][nH]c2=O)c2c(C)[nH][nH]c2=O)cc1[N+](=O)[O-],-18.4%
CCCOC(=O)CN1C(=O)c2ccc(C(=O)OCCC)cc2C1=O,-1.8%
CCN1CCN(C(=O)c2ccc(CS(=O)(=O)Cc3ccccc3F)o2)CC1,-8.0%
Cc1nc(NCc2ccccc2)c2nc(-c3ccccc3)n(CCN3CCCC3)c2n1,?
C=CCOC(=O)C(C#N)c1nc2ccccc2nc1N1CCN(Cc2ccc3c(c2)OCO3)CC1 (stereo unspecified),-17.3%
O=C(NN1C(=O)C2C3C=CC(C3)C2C1=O)c1ccco1 (stereo unspecified),-4.4%
COc1ccc(N(CC(=O)N2c3ccccc3CC2C)S(=O)(=O)c2c(C)noc2C)cc1 (stereo unspecified),-13.6%
O=C(Nc1ccccc1C(=O)NCCN1CCOCC1)c1ccco1,-4.0%
COc1ccc(NC(=O)/C(Cl)=C(/Cl)S(=O)(=O)Cc2ccc(C)cc2)cn1,-6.5%
CCc1ccc(C2NC(c3ccc(CC)cc3)C([N+](=O)[O-])C(C)(C)C2[N+](=O)[O-])cc1 (stereo unspecified),-8.8%
O=C(Nc1ccccc1)N1CCN2C(=O)c3ccccc3C12c1ccccc1 (stereo unspecified),-14.0%
CCC(C)C(NC(=O)OC(C)(C)C)C(=O)NC(CC(C)C)C(N)=O (stereo unspecified),-10.8%
CCOC(=O)N1CCC(NC(=O)CN(C)S(=O)(=O)c2cc3c(cc2Cl)NC(=O)CO3)CC1,-12.9%
Cc1cccc([C@H]2[C@@H]3C=CC[C@@H](C)[C@@H]3C(=O)N2Cc2ccccc2)c1,-10.8%
CCOc1cc(NC(=O)c2ccccc2C)c(OCC)cc1NC(=O)C1=Cc2ccccc2OC1,-7.4%
COC(=O)C1C2C=CC3(CN(c4cccc(Cl)c4)C(=O)C13)O2 (stereo unspecified),-9.9%
Cc1ccc(S(=O)(=O)NC(=O)NCCCCNC(=O)NS(=O)(=O)c2ccc(C)cc2)cc1,-1.5%
Cc1cccc(N(CC(=O)NC2CCCCC2)C(=O)c2c(C)noc2C)c1,-3.5%
O=C(c1ccccc1OCc1ccccc1Br)N1CCN(c2ncccn2)CC1,-27.0%
CCOC(=O)c1c(-c2ccc(F)cc2)csc1NC(=O)c1c(-c2ccccc2)noc1C,?
O=C(COC(=O)c1cncc(Br)c1)NCc1ccco1,-13.9%
CC1CCC(NC(=O)Cn2cc3c(n2)CCCC3)CC1 (stereo unspecified),-4.8%
CN(C)S(=O)(=O)c1cccc(NC(=O)c2ccc(N3CCOCC3)c([N+](=O)[O-])c2)c1,-16.9%
COc1ccc(NC(=O)/C=C/c2ccc(Cl)cc2)cc1,-13.6%
COCCN(Cc1cc2cc3c(cc2nc1Cl)OCO3)C(=O)Nc1ccc(OC)cc1,20.5%
Nc1cc(=O)nc(SCC(=O)NC2CCCCC2)n1-c1ccccc1,-5.6%
Cc1cccc(N2CCN(c3nc4ccc(Cl)cc4n4cnnc34)CC2)c1C,?
Cc1cc(OCC(=O)NCC(C)C)cc(C)c1Br,14.1µM*
COc1ccc2cc(-c3cc(C(=O)O)c4ccccc4n3)ccc2c1,?
CCSCCCC(=O)O,-8.4%

# The closing 5 records of the part before are carried over, then new ones follow.
SMILES,HPGD inh
Nc1cc(=O)nc(SCC(=O)NC2CCCCC2)n1-c1ccccc1,-5.6%
Cc1cccc(N2CCN(c3nc4ccc(Cl)cc4n4cnnc34)CC2)c1C,?
Cc1cc(OCC(=O)NCC(C)C)cc(C)c1Br,14.1µM*
COc1ccc2cc(-c3cc(C(=O)O)c4ccccc4n3)ccc2c1,?
CCSCCCC(=O)O,-8.4%
COc1ccc(NS(=O)(=O)c2ccc(Br)s2)cc1OC,-7.0%
Cc1cc(C)c(S(=O)(=O)N2CCN(c3ccc([N+](=O)[O-])c(NCC4CCCO4)c3)CC2)c(C)c1 (stereo unspecified),-4.8%
Cc1ccc(S(=O)(=O)Nc2ccccc2C(N)=O)cc1,?
COc1ccc(C2CC(C(F)(F)F)n3nc(C(=O)NCCCn4ccnc4)cc3N2)cc1OC (stereo unspecified),-9.2%
Cc1ccc(S(=O)(=O)N2CCC(C(=O)N[C@@H](C)C(=O)NCc3ccco3)CC2)cc1,-1.9%
COC(=O)c1ccccc1NC(=O)CN(Cc1ccccc1)S(C)(=O)=O,-16.4%
Nc1nnc(-c2cccc(Cl)c2Cl)c(N)n1,-5.3%&-11.6%&-7.9%
O=C(c1ccc(F)cc1)N1CCN(c2ncccn2)CC1,-3.5%
COc1ccc(Br)cc1C(=O)N/N=C/c1ccc2c(c1)n(C)c(=O)n2C,?
COCCN1Cc2cccc(C(=O)Nc3ccc(-c4nc5ccccc5[nH]4)cc3)c2C1=O,-25.1%
CCOC(=O)c1cnc(SCc2ccc(C)cc2)nc1N,-13.2%
CN1CCn2c1nc(N1CCCCC1)nc2=O,-7.5%
O=C(Oc1cccnc1)c1cc(S(=O)(=O)N2CCOCC2)ccc1Cl,-14.2%
CCOC(=O)Cc1csc(SCc2cc(=O)oc3cc(O)ccc23)n1,-26.8%
O=C1CCCN1CN1CCCCC1,-9.8%
Cc1cccc(N2CCN(C(=O)c3ccoc3C)CC2)c1C,-13.8%
COc1cc(C(=O)NNC(=S)NC(=O)c2ccccc2C)cc(OC)c1OC,-10.3%
Cc1ccc(-c2csc(NC(=S)NC(=O)c3cc4ccccc4o3)n2)cc1,-12.0%
COc1c(/C=N/Nc2nc(N3CCCCC3)nc(N3CCCCC3)n2)cccc1[N+](=O)[O-],-14.5%
COc1ccc(OC)c(S(=O)(=O)Nc2cccnc2)c1,-0.8%
O=C(CSc1ncccc1-c1nc2ccccc2[nH]1)Nc1ccc2c(c1)OCCO2,-11.3%
C=CCC(C=C)S(=O)(=O)c1ccc(C)cc1 (stereo unspecified),-23.8%
CC(=O)Nc1cccc(OC(=O)c2ccoc2C)c1,-16.6%
Cc1ccc(S(=O)(=O)Nc2c(C)nn(C)c2C)cc1,-2.7%
C=CCc1ccc(OCCCCN2CC(C)OC(C)C2)c(OC)c1 (stereo unspecified),-9.5%
CC1=Nc2ccccc2NC(=O)C1Sc1nnc(C)s1 (stereo unspecified),-26.7%
Cc1ccc(NC(=O)c2ccc(NCc3ccco3)c([N+](=O)[O-])c2)cc1Cl,-12.5%
CC(C)OC(=O)CSc1nnc(-c2ccc(Cl)cc2)n1N,-9.7%
COCCCCC(=NOCCN)c1ccc(C(F)(F)F)cc1,3.1%&-1.6%
CCCCn1c(CNC(=O)CCC)nc2ccccc21,?
